Autofluor counter: compound fluorescence in toxin protease inhibitor counterscreen; compound autofluorescence counterscreen, microsphere flow cytometry; hits give high values; fluorescence intensity (test concentration not listed); 360,000 compounds, 3.1% hits;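 active means at least 3 SD above the mean of all compounds, about 16000 in these data; inconclusive means too few beads counted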;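 further: 100 nL of 1 mM stock went into each well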
ugtP null kill: growth inhibition of S. aureus ugtP deletion strain | S. aureus RN4220 ugtP deletion, OD600 growth, 16 h; some inactives read as strong as hits | growth inhibition, % (no concentration beside the values) | 330,000 compounds, 0.54% hits | AID 1259309;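 active means z-score under -3 and OD600 up to 0.15 on both plates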;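 further: plate controls were untreated wells for no effect and antibiotic for full effect; wells of about 80 µL received 100 nL stock; the first replicate is given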
RN4220 kill: S. aureus RN4220 growth inhibition. OD600, 16 h. inhibition, % (concentration not given with the values). 330,000 compounds, 0.33% hits. AID 1259311;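 active means z-score of -3 or lower and OD600 up to 0.18 on both plates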;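 further: plate controls were untreated cells for no effect and reference antibiotic for full effect; stock transfer was 100 nL into about 80 µL; one replicate is shown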
Mtb hypoxia inh: Mtb hypoxia fluorescent reporter inhibition; M. tuberculosis hypoxia-regulated fluorescent reporter, fluorescence; fluorescence inhibition, % (test concentration not listed); 300,000 compounds, 0.1% hits;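 active means 35 to 45% if threefold the growth effect, above 45% if 1.5-fold the growth effect; inactive means the rest, general growth blockers included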;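 further: wells of about 50 µL received 100 nL stock; 0% = vehicle wells and 100% = reference inhibitor wells; whole bacteria with a GFP reporter of the hypoxia response; strong numbers were not always called active; many hits fall short of the cut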
PrP 5UTR inh: inhibition of PrP 5' UTR reporter expression. cell-based PrP 5' UTR mRNA reporter, plate reader. 340,000 compounds, 0.35% hits. AID 488862. inhibition, % (concentration not given with the values);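 active means every replicate at 50% or more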;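 further: 0 = median of the neutral control wells; tested in H4 reporter cells; numbers are from one replicate; inactives centre near -14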
BJeLR lethal: kills HRASV12-expressing BJeLR cells; BJeLR (HRASV12) viability, CellTiter-Glo ATP luminescence, 48 h; reference of the scale not given here; 300,000 compounds, 0.17% hits; AID 1554; inhibition, % (no concentration beside the values);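 active means replicate mean above 50%; inconclusive means above 50% but judged a plate artefact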;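 further: 50 nL library stock added to about 25 µL; numbers are from one replicate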
Mtb hypoxia inh growth: recorded beside Mtb hypoxia inh, whose call it bears; growth inhibition, %; measured here: M. tuberculosis growth (absorbance);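 0% = vehicle and 100% = reference antibiotic; read after six days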
* hit, by the source's call; ? = inconclusive; . = not tested or not shown; & = joins results of further samples.

SMILES	Autofluor counter	ugtP null kill	RN4220 kill	Mtb hypoxia inh	Mtb hypoxia inh growth	PrP 5UTR inh	BJeLR lethal
CCOC(=O)N/N=C(\C)c1ccc(-n2cnnn2)cc1	4673	.	.	.	.	-21	-1
Cc1cs/c(=N\N=C2CCCCC2)n1Cc1ccco1	4682	.	.	.	.	-6	8
CCN(CC)CCC(c1ccc2c(c1)OCO2)c1c(OC)cc(OC)c2ccc(=O)oc12 (centres undefined)	3892	-15	2.1	13	8	5	-11
CCOC(=O)N1CCN(c2nc3ccccc3nc2C(C#N)S(=O)(=O)c2ccc(C)cc2)CC1 (centres undefined)	3358	7	8.7	.	.	-22	2
NC(=O)c1cccc2c1-c1ccccc1/C2=N/NC(N)=S	3129	.	.	.	.	-7	4
CCCCNC(=O)NNC(=O)c1ccco1	8417	3	1.6	4	3	-33	-5
Cc1ccc(NC(=O)c2csnn2)c(C)c1	8730	-6	-0.6	-6	-2	-8	-3
COc1ccccc1NC(=O)N(Cc1cccs1)Cc1cc2cc3c(cc2[nH]c1=O)OCO3	2179	6	5.2	5	13	-14	2
CN(CC(=O)Nc1ccc(Cl)c(C(F)(F)F)c1)C(=O)Cc1ccsc1	5088	-10	0.4	-11	-12	-6	4
Clc1cccc(OCCCN2CCCC2)c1Cl	2184	4	3.1	-7	5	3	-6
CC(=O)N1c2ccc(S(=O)(=O)N3CCC(C(=O)Nc4cccc(F)c4)CC3)cc2CC1C (centres undefined)	5867	0	-1.0	8	4	1	1
COc1ccc(Cn2c(=O)c3cccnc3n(Cc3ccc([N+](=O)[O-])cc3)c2=O)cc1	2074	1	1.8	9	3	-10	-7
CSc1cccc(NS(=O)(=O)c2cn(C)cn2)c1	4891	15	7.5	1	6	-11	-4
N#CCNC1CC(=O)N(c2ccc(F)cc2)C1=O (centres undefined)	3622	10	3.2	-2	10	-42	0
Cc1onc(-c2ccccc2)c1C(=O)NNC(=S)NC(=O)c1ccc(F)cc1	2550	49	60	10	5	-4	-11
CCN(CC)CCCN1C(=O)C2C(C(=O)Nc3ccc(C(C)C)cc3)C3C=CC2(O3)C1C(=O)NC1CCCCC1 (centres undefined)	3329	-2	1.1	0	-6	-23	0
CC12CCC(C(=O)NCc3ccccc3Cl)(CC1=O)C2(C)C (centres undefined)	2679	-3	5.0	3	8	-25	-8
CCOc1ccc(NC(=O)C/C(C)=N/NC(=O)Cc2cccs2)cc1	3064	.	.	.	.	-21	5
COc1cccc(C(=O)CN2CCN(S(=O)(=O)c3ccc(Br)cc3)CC2)c1	2667	5	4.0	.	.	-21	4
COc1ccc(-c2noc(CCC(=O)NCCN(C)Cc3ccccc3)n2)cc1	2759	8	-2.3	.	.	-5	1
O=C(NC1CCCC1)C1CCN(S(=O)(=O)c2cccc3cccnc23)CC1	4139	-2	6.8	14	10	-19	3
CSc1nnc(NC(=O)c2ccc3c(c2)OCO3)s1	5536	-6	11	-1	-2	63*	9
CC1=NN(c2nc(C)cc(C)n2)C(=O)C1CCC(C)C (centres undefined)	8206	8	1.4	9	3	-3	-5
COc1cc2[nH]c(=S)n(C3CC3)c(=O)c2cc1OC	4301	1	8.2	6	6	7	-17

Some entries already given, limited to Mtb hypoxia inh growth, RN4220 kill and BJeLR lethal:
mol	Mtb hypoxia inh growth	RN4220 kill	BJeLR lethal
CCOC(=O)N1CCN(c2nc3ccccc3nc2C(C#N)S(=O)(=O)c2ccc(C)cc2)CC1 (centres undefined)	.	8.7	2
Clc1cccc(OCCCN2CCCC2)c1Cl	5	3.1	-6

Next results.
SMILES	Autofluor counter	ugtP null kill	RN4220 kill	Mtb hypoxia inh	Mtb hypoxia inh growth	PrP 5UTR inh	BJeLR lethal
CCOc1ccc(C2C(C(C)=O)=C(O)C(=O)N2CCc2c[nH]c3ccccc23)cc1 (centres undefined)	2467	-1	3.2	-6	1	-18	0
CCOC(=O)CSc1nc(=O)n2cc(C)ccc2n1	4411	0	7.6	-3	-4	-22	5
COc1ccc(N2CCN(C(=O)c3ccccc3)CC2)c([N+](=O)[O-])c1	4582	5	9.3	-6	-9	-9	42
O=C(NCc1ccc2c(c1)OCO2)c1cccnc1	9659	1	11	7	3	-9	-5
CN(CCOc1ccccc1)CC(=O)Nc1cccc(Br)c1	4237	4	-5.3	19	0	-57	1
O=C(COC(=O)c1cc(=O)[nH]c2ccccc12)Nc1nc(-c2ccccc2)cs1	3484	-10	-2.3	3	12	-43	4
CCN1CCN(Cc2ccc(NC(=O)c3cc(NC(=O)c4cc(C)on4)cc(OC)c3)cc2C(F)(F)F)CC1	4030&3817	.	.	.	.	-3	0
Cn1c(=O)c2cc(S(=O)(=O)Nc3cc(C(=O)O)cc(C(=O)O)c3)ccc2n(C)c1=O	4446	17	7.6	5	8	-31	-1
COC(=O)CNC(=O)C1(C)C=CCN1C(=O)c1ccccc1 (centres undefined)	3977	-3	1.6	8	11	-51	2
O=C(COC(=O)/C=C/c1ccc(S(=O)(=O)N2CCOCC2)cc1)NCc1ccc2c(c1)OCO2	4826	1	3.3	0	9	-8	12
Cc1cc(C)c(C#N)c(SCC(=O)Nc2cc(C)on2)n1	6177	-2	-1.0	6	4	-52	.
Cc1ccc(-n2c3nc(=O)n(C)c(=O)c-3cc3ccccc32)cc1	.	15	2.3	12	4	.	-2
CCCOc1ccc(C(C)=O)cc1CC(C(=O)OCC)C(=O)OCC	6936	9	4.2	11	4	-14	-3
CCCOC(=O)C(=CC=Cc1ccco1)NC(=O)c1ccccc1	.	-9	-4.8	-10	-2	.	.
CCOC(=O)N1CCN(C(=O)CNC(=O)c2nn(-c3ccc(OC)cc3)c(=O)c3ccccc23)CC1	4353	-1	2.9	2	4	-40	4
Cc1ccc2c(c1)C(c1ccc(F)cc1)N(C(=O)c1ccccc1Br)CC(=O)N2 (centres undefined)	3492	0	1.5	-6	6	-1	-21
COc1ccccc1C(=O)NC1CC(C)(C)NC(C)(C)C1	4068	1	2.3	-2	7	-15	5
O=C(Nc1nccs1)C1CC(=O)N(CCc2ccc(F)cc2)C1 (centres undefined)	3716	0	3.7	1	-2	2	9
CC1Sc2ccc(S(=O)(=O)CCC(=O)Nc3ccccn3)cc2NC1=O (centres undefined)	5864	7	3.0	6	13	-15	-6
CCOC(=O)C1CCN(S(=O)(=O)c2cc(Cl)c(C)cc2OC)CC1	4816	-11	-3.6	.	.	-38	-4
O=[N+]([O-])c1cccc(CN2CCN(c3cccc4[nH]ccc34)CC2)c1	3339	9	-2.5	0	-3	-20	-3
Cc1cc(C)cc(Oc2ccc(N)cc2)c1	10927	17	8.4	11	0	1	-6
Cc1ccc(C)c(SCC(=O)c2ccc[nH]2)c1	4481	-9	5.3	4	11	-29	2
CC(=O)Oc1cccc(N2C(=O)c3ccc(C(=O)O)cc3C2=O)c1	9367	-8	-3.8	-13	7	-10	1

In the list so far, these contain a nitro group on carbon.
SMILES	Autofluor counter	ugtP null kill	RN4220 kill	Mtb hypoxia inh	Mtb hypoxia inh growth	PrP 5UTR inh	BJeLR lethal
COc1ccc(Cn2c(=O)c3cccnc3n(Cc3ccc([N+](=O)[O-])cc3)c2=O)cc1	2074	1	1.8	9	3	-10	-7
COc1ccc(N2CCN(C(=O)c3ccccc3)CC2)c([N+](=O)[O-])c1	4582	5	9.3	-6	-9	-9	42
O=[N+]([O-])c1cccc(CN2CCN(c3cccc4[nH]ccc34)CC2)c1	3339	9	-2.5	0	-3	-20	-3

(list continues)
SMILES	Autofluor counter	ugtP null kill	RN4220 kill	Mtb hypoxia inh	Mtb hypoxia inh growth	PrP 5UTR inh	BJeLR lethal
COc1ccccc1C1C(C#N)=C(N)Oc2cc(C)n(CCCn3ccnc3)c(=O)c21 (centres undefined)	4121	-5	-0.5	1	2	-7	9
Cc1ccc(SC[C@H](Cc2ccccc2)N2CC[C@@H](C)CCC2=O)cc1	3786	.	.	.	.	-14	6
Cc1cc(C(=O)OCC(=O)NC(C)C)c(C)o1	2751	3	0.3	.	.	-14	-4
CCOC(=O)Cc1[nH]nc2c1C(c1ccoc1)C(C#N)=C(N)O2 (centres undefined)	10150	0	0.5	-4	2	-8	-12
Cc1ccc(N2CC(C(=O)Nc3ccc(S(=O)(=O)N4CCOCC4)cc3)CC2=O)cc1Cl (centres undefined)	6107	-5	4.5	2	-2	-12	4
CNC(=O)n1cc(C)c(-c2cccs2)n1	6994	4	6.8	18	7	.	3
O=C(c1ccc(F)cc1)N(Cc1ccccc1)C1CCS(=O)(=O)C1 (centres undefined)	1987	4	-1.7	.	.	-13	-2
COc1cc(OC)c(-c2nc(-c3ccncc3)no2)cc1OC	4113	-5	-2.7	-4	-3	-15	-12
COc1ccc(NC(=O)c2cccs2)cc1NC(=O)c1ccco1	2670	6	0.6	.	.	-18	6
N[C@@H](Cc1ccccc1)C(=O)N1CCC(C(=O)N[C@@H](Cc2c[nH]c3ccccc23)C(=O)O)CC1	3167	8	3.5	2	-8	.	-8
CSc1ccccc1NC(=S)N/N=C/c1cccn1Cc1ccc(F)cc1	3996	.	.	.	.	16	37
CCCOC(=O)c1[nH]c2c(c1C)C(=O)CC(c1ccc(OC)c(OC)c1)C2 (centres undefined)	2426	7	-1.4	2	5	-11	9

Compound profiles (already shown). Order of values: Autofluor counter | ugtP null kill | RN4220 kill | Mtb hypoxia inh | Mtb hypoxia inh growth | PrP 5UTR inh | BJeLR lethal
Cc1ccc(SC[C@H](Cc2ccccc2)N2CC[C@@H](C)CCC2=O)cc1 is listed with 3786 | . | . | . | . | -14 | 6
COc1ccc(NC(=O)c2cccs2)cc1NC(=O)c1ccco1 is listed with 2670 | 6 | 0.6 | . | . | -18 | 6
O=C(c1ccc(F)cc1)N(Cc1ccccc1)C1CCS(=O)(=O)C1 (centres undefined) is listed with 1987 | 4 | -1.7 | . | . | -13 | -2
CCOC(=O)Cc1[nH]nc2c1C(c1ccoc1)C(C#N)=C(N)O2 (centres undefined) is listed with 10150 | 0 | 0.5 | -4 | 2 | -8 | -12
N[C@@H](Cc1ccccc1)C(=O)N1CCC(C(=O)N[C@@H](Cc2c[nH]c3ccccc23)C(=O)O)CC1 is listed with 3167 | 8 | 3.5 | 2 | -8 | . | -8

The list goes on.
SMILES	Autofluor counter	ugtP null kill	RN4220 kill	Mtb hypoxia inh	Mtb hypoxia inh growth	PrP 5UTR inh	BJeLR lethal
COc1ccc(C(=O)O/N=C(\N)c2ccc(OC)c(OC)c2)c(OC)c1	3704	-6	0.4	-10	14	-22	4
CC(Sc1ncn[nH]1)C(=O)Nc1ccc(Cl)cn1 (centres undefined)	5365	0	4.7	8	-5	-8	-1
CSc1ccccc1NC(=O)CN(C)C(=O)C1CC(=O)N(C(C)c2ccccc2)C1 (centres undefined)	?	0	1.8	5	9	-12	.
CC1CN(C(=O)CCNC(=O)c2ccccc2Cl)CC(C)O1 (centres undefined)	.	-4	1.5	3	-5	2	-9
Cc1c(NC(=O)CN2C(=O)c3cccc4cccc2c34)c(=O)n(-c2ccccc2)n1C	4642	3	5.0	.	.	7	2
O=C(O)CCC(=O)N1N=C(c2cccs2)CC1c1cccc([N+](=O)[O-])c1 (centres undefined)	3311	6	2.7	6	2	-23	-12
CC1(C)CC(=O)C(C(=O)c2ccccc2)C(=O)C1	4216	10	16	0	8	-35	6
CN(NC(=O)C=CC(=O)O)c1ncc(C(F)(F)F)cc1Cl	.	3	9.5	1	2	.	.
O=C(CCl)Nc1cccc(CP(=O)(c2ccccc2)c2ccccc2)c1	3375	.	.	.	.	3	3
C=CCC(CC(=O)NC(CO)Cc1ccccc1)C(=O)NC(C)COC(=O)C(CC=C)CC(=O)OC(C)(C)C (centres undefined)	.	4&-6	7.0&6.6	-5&4	1&6	.	.
Cc1ccc(-c2cc(C(=O)OCC(=O)Nc3cc(C)on3)c3ccccc3n2)c(C)c1	4698	19	-6.5	.	.	-2	.
COc1cc(CNCc2ccc(SC)cc2)cc(OC)c1	2631	-1	8.8	4	4	-47	5
Cc1cc(/C=C2\SC(=S)NC2=O)c(C)n1-c1cccc(O)c1	4860	-15	23	4	4	-46	-12
COc1ccccc1NC(=O)Nc1nc(CC(=O)N2CCN(c3ccccc3)CC2)cs1	.	-3	-0.6	2	-2	-19	6
CC(=NNC(=O)c1ccc(Br)cc1)c1cccc(NC(=O)c2cccnc2)c1	.	5	1.7	10	5	.	.
COc1ccc(-c2cc(C(=O)NC(C(=O)O)C(C)C)c(C)o2)cc1OC (centres undefined)	3864	0	2.5	8	6	-51	-3

Bioassay records deposited in PubChem by several laboratories.
